From PubChem BioAssay
Sa ugtP lethal: compounds lethal to S. aureus RN4220 ugtP deletion mutant; growth inhibition, % (concentration not given with the values); AID 1259309; 0.54% of 330,000 active; OD600 growth, 16 h; some inactives read as strong as hits;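 active means z-score under -3 and OD600 up to 0.15 on both plates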;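 further: plate controls were untreated wells for no effect and antibiotic for full effect; wells of about 80 µL received 100 nL stock; the first replicate is given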
Bead autofluor: counter-screen for toxin protease inhibitors: compound fluorescence | fluorescence intensity (test concentration not listed) | compound autofluorescence counterscreen, microsphere flow cytometry; hits give high values | 3.1% of 360,000 active | AID 624483;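 active means at least 3 SD above the mean of all compounds, about 16000 in these data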;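 further: 100 nL of 1 mM stock went into each well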
RN4220 kill: kills Staphylococcus aureus RN4220. S. aureus RN4220 growth, OD600, 16 h. inhibition, % (concentration not given with the values). 0.33% of 330,000 active;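 active means z-score of -3 or lower and OD600 up to 0.18 on both plates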;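 further: plate controls were untreated cells for no effect and reference antibiotic for full effect; stock transfer was 100 nL into about 80 µL; one replicate is shown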
PrP UTR inh: inhibition of PrP 5' UTR reporter expression | cell-based PrP 5' UTR mRNA reporter, plate reader | inhibition, % (test concentration not listed) | 0.35% of 340,000 active;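 active means every replicate at 50% or more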;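 further: 0 = median of the neutral control wells; tested in H4 reporter cells; numbers are from one replicate; inactives centre near -14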
* = called active by the depositor; . = no result given. An excerpt; rates above refer to the full screens.

Results follow in this order: Bead autofluor, RN4220 kill, PrP UTR inh, Sa ugtP lethal
COc1ccc([C@H]2CC(=O)C=C(c3ccc(CNC(=O)OC(C)(C)C)cc3)C2)cc1
  3244, ., -15.7, .
C=CCN([C@@H](CC(C)C)C(=O)OC)S(=O)(=O)N(CC=C)[C@@H](CC(C)C)C(=O)OC
  3752, ., -7.8, .
O=C(NCC(F)(F)F)c1ccc(S(=O)(=O)N2CCN(C(=O)C3CCCO3)CC2)cc1 (stereo unspecified)
  3867, ., -18.1, .
Cc1cccc(OCCC(=O)Nc2ccc(C)c(S(=O)(=O)N3CCOCC3)c2)c1
  2957, ., -0.2, .
C[C@@H]1ON(C)[C@H]2C[C@H]3c4cc(N5CCN(C)CC5)ccc4CCN3C(=O)[C@@H]12
  3814, ., -16.6, .
COC(=O)C1=C(c2c(C)noc2C)C[C@@H]2CC[C@H]1N2C(=O)N1CCCC1
  3760, ., -17.3, .
COc1ccccc1N(C)S(=O)(=O)c1ccc(C(=O)NCc2ccccc2CN2CCCC2)cc1
  3738, ., -12.3, .
Cc1cc(NCCCCCCCNc2cc(C)nc3cc([N+](=O)[O-])ccc23)c2ccc([N+](=O)[O-])cc2n1
  3361, ., -23.7, .
O=C(O)/C=C/C(O)c1ccc(Cl)cc1 (stereo unspecified)
  5770, ., -18.9, .
C=CC[C@@H](CC(=O)N[C@H](CO)Cc1ccccc1)C(=O)N[C@H](COC(=O)[C@@H](CC=C)Cc1ccc(F)cc1)Cc1ccccc1
  3953, ., -20.2, .
CC[C@H](C)[C@H]1CNC(=O)C(=O)N1CC1CCN(CC2CCC(C)CC2)CC1 (stereo partly specified)
  3695, ., -18.1, .
Cc1cc2nc(-c3ccc(SCC(=O)Nc4nccs4)nc3)[nH]c2cc1C
  8942, ., -72.4, .
O=C(O)C1=CC[C@@H](c2ccc(Cl)cc2)N(S(=O)(=O)c2ccc(Cl)cc2)[C@H]1c1ccccc1
  4063, ., -16.3, .
CC(C)[C@H](N)c1cn([C@@H](CO)C(=O)N2CCNCC2)nn1
  3500, ., -21.6, .
COCCCNP1(=O)OCC(C)([N+](=O)[O-])CO1 (stereo unspecified)
  3987, ., 0.4, .
CC(C)OC(=O)c1ccc(NCc2cc(O)ccc2O)cc1Cl
  14153, ., -14.8, .
CC(=O)Nc1ccc(OCc2ccccc2)cc1[N+](=O)[O-]
  3913, ., -38.1, .
CCOc1cc(/C=N/NC(=O)c2cc3c(ccc4ccccc43)o2)ccc1O
  5574, ., 0.6, .
C/C(=N\NC(=O)C1CCCC1)c1ccc(Cl)cc1
  5771, ., -21.1, .
O=c1c2c(O)cc(O)cc2oc2ccc(O)c(O[C@@H]3O[C@H](CO)[C@@H](O)[C@H](O)[C@H]3O[C@H]3O[C@H](CO)[C@@H](O)[C@H](O)[C@H]3O)c12
  5836, ., -14.9, .
COc1cc(C#Cc2c(C=O)n(C)c3ccccc23)cc(OC)c1
  3017, ., -46.1, .
C=CC[C@@H](CC(=O)N(CCO)Cc1ccccc1)C(=O)N[C@H](COC(=O)[C@@H](CC=C)Cc1ccc(F)cc1)Cc1c[nH]c2ccccc12
  2828, ., 11.7, .
O=C1C=C(c2cccc(Cl)c2O)C[C@@H](c2ccc(F)cc2)C1
  4455, ., -13.6, .
O=C1C=C(c2ccc3c(c2)OCO3)C[C@@H](c2ccc(F)cc2)C1
  2944, ., -3.7, .
CC(=O)Nc1ccc(S[C@@H](CCN2CC[C@H](C(C)(C)C)CCC2=O)c2ccccc2)cc1
  3621, ., -14.6, .
Cc1ccc(SC2=C(N(C)C)C(=O)c3ccccc3C2=O)cc1
  2828, ., -30.2, .
CC1CCCC(NC(=O)COC(=O)Cc2cn3ccsc3n2)C1C (stereo unspecified)
  4316, ., -11.8, .
COc1ccc(S(=O)(=O)Nc2cccc3c2O[C@H](CN(C)Cc2ccncc2)[C@@H](C)CN([C@H](C)CO)C3=O)cc1
  3762, ., -2.3, .
COC(=O)C1=C(c2ccc(F)cc2OCc2ccccc2)C[C@@H]2CC[C@H]1N2C(=O)N1CCC(O)CC1
  3730, ., -35.7, .
COC(=O)c1nn(-c2ccccc2)c(Sc2ccc(Br)cc2)c1/C=N/O
  2479, ., -30.0, .
COc1ccccc1-n1cnnc1SCC(=O)NC1CCCC1
  2874, ., 5.6, .
O=C1c2cc([N+](=O)[O-])ccc2-c2cc(Br)c(N=C(NO)C(F)(F)F)cc21
  3823, ., 10.9, .
COc1ccc2c(c1)/C(=C\c1cccc(/C=C3/C(=O)Nc4ccc(OC)cc43)n1)C(=O)N2
  4018, ., 4.5, .
O=C(NCc1ccco1)c1cccc2c1C(=O)c1ccc(/C=C/c3ccccc3)cc1S2(=O)=O
  3510, ., -28.7, .
OCC[C@H]1C[C@@H](O)[C@H](O)[C@@]2(CCCc3ccccc3O2)O1
  2884, ., 7.4, .
CC(C)(C)c1[nH]c2ccccc2c1C=NO
  ., 1.9, ., -0.1
Cc1cc(C)c2c(c1)C(=NNC(=S)Nc1ccc(F)cc1)CCC2
  ., 0.1, ., 4.3
O=C(CN(Cc1ccc(Cl)c(Cl)c1)S(=O)(=O)c1ccccc1)NN=Cc1ccc2c(c1)OCO2
  ., -8.7, ., 0.5
CC(=NOC(=O)c1ccc(OC(C)C)cc1)c1ccc(C)c(C)c1
  ., -6.6, ., 56.1
Cc1cc(OC(C)C(=O)NN=CCC(C)c2ccccc2)ccc1Cl (stereo unspecified)
  ., 3.8, ., 9.0
COC(=O)c1ccc(C=NNC(=O)CC(=O)NCC(C)C)cc1
  ., 1.2, ., 8.0
Cc1nc(/C=[N+](\[O-])C(C)(C)C=NO)n(O)c1C
  ., 2.1, ., 5.6
NC(=S)NN=Cc1ccc(-c2cccc(Cl)c2Cl)o1
  ., 4.5, ., -0.6
Cc1ccc(-n2c(C)cc(C=NNC(=O)CC3(C)OCCO3)c2C)c(C)c1
  ., -5.9, ., 1.0
Cc1ccsc1C(=O)NN=C/C=C/c1ccccc1[N+](=O)[O-]
  ., -2.3, ., -0.7
CCCOc1ccc(C=NNC(=O)c2ccc(Cn3cc([N+](=O)[O-])cn3)o2)cc1
  ., 0.4, ., -5.9
CC(=NNC(=O)c1nc(C)cc(C)n1)c1ccccc1
  ., 0.7, ., 6.3
CC(C)CC(C(O)=C(C#N)c1nc2ccccc2[nH]1)N1C(=O)c2ccccc2C1=O (stereo unspecified)
  ., -0.2, ., -16.3
CN(C)c1ccc(C=NNC(=O)CN(c2cccc(Cl)c2)S(C)(=O)=O)cc1Br
  ., -1.8, ., -8.9
C[N+]1(CCNC(=O)C=NO)CCCCC1
  ., -1.1, ., 5.0
COc1c(C=NNc2ccc([N+](=O)[O-])cc2[N+](=O)[O-])c(C)nn1-c1ccccc1
  ., -3.3, ., -2.8
C/C(C=Nn1c(-c2cc(C)[nH]n2)n[nH]c1=S)=C\c1ccccc1
  ., 16.4, ., -13.6
CCOCCn1cnc2sc(C(=O)Nc3nc(C)c(C(=O)OCC)s3)c(C)c2c1=O
  ., 3.9, ., -1.4
CCn1ncc(C=NNC(=O)c2csc3ccccc23)c1C
  ., -3.9, ., 14.2
Cc1ccc(C=NNC(=O)CSCc2ccc(Cl)cc2)cc1
  ., -2.5, ., 2.6
CC(Sc1nnc(CNc2cccc3ccccc23)n1-c1ccccc1)C(=O)NN=Cc1ccco1 (stereo unspecified)
  ., -0.5, ., -3.1
CC(=NNC(=O)c1csc(C)c1C)c1ccc(Cl)s1
  ., -2.8, ., 0.8
Clc1cccc(Cl)c1CONC=Nc1ncnc2sccc12
  ., 4.6, ., -13.0
CC1=C[C@@H](C)CC=C[C@H]2[C@@H]3O[C@]3(C)[C@@H](C)[C@H]3[C@H](Cc4c[nH]c5ccccc45)NC(=O)[C@]32C(=O)C=CC(=O)[C@@H]1O
  ., -0.2, ., 9.8
Cc1cc(O)c(C=NNc2cccc(Cl)c2)c(=O)o1
  ., -2.8, ., -4.6

Molecules listed so far containing an NH in an aromatic ring (6):
Results follow in this order: Bead autofluor, RN4220 kill, PrP UTR inh, Sa ugtP lethal
Cc1cc2nc(-c3ccc(SCC(=O)Nc4nccs4)nc3)[nH]c2cc1C
  8942, ., -72.4, .
C=CC[C@@H](CC(=O)N(CCO)Cc1ccccc1)C(=O)N[C@H](COC(=O)[C@@H](CC=C)Cc1ccc(F)cc1)Cc1c[nH]c2ccccc12
  2828, ., 11.7, .
CC(C)(C)c1[nH]c2ccccc2c1C=NO
  ., 1.9, ., -0.1
CC(C)CC(C(O)=C(C#N)c1nc2ccccc2[nH]1)N1C(=O)c2ccccc2C1=O (stereo unspecified)
  ., -0.2, ., -16.3
C/C(C=Nn1c(-c2cc(C)[nH]n2)n[nH]c1=S)=C\c1ccccc1
  ., 16.4, ., -13.6
CC1=C[C@@H](C)CC=C[C@H]2[C@@H]3O[C@]3(C)[C@@H](C)[C@H]3[C@H](Cc4c[nH]c5ccccc45)NC(=O)[C@]32C(=O)C=CC(=O)[C@@H]1O
  ., -0.2, ., 9.8

Next entries
Results follow in this order: Bead autofluor, RN4220 kill, PrP UTR inh, Sa ugtP lethal
Clc1ccc(C=Nc2c(-c3ccc(Cl)cc3)nc3n2CCS3)cc1
  ., -10.4, ., -9.0
Cc1ccc(-c2nn(-c3ccccc3)cc2C=NNC(=O)c2ccc3c(c2)OCO3)cc1
  ., -2.2, ., 8.2
CCC(CC)C(=O)Nc1cccc(C(C)=NNC(=O)c2c(Br)cnn2C)c1
  ., 0.3, ., -3.6
Cc1ccc(Oc2ccccc2C=NO)cc1
  ., -0.2, ., 38.0
CCc1nc(NC(C(=O)O)C(C)CC)c2oc3ccccc3c2n1 (stereo unspecified)
  ., 4.3, ., 0.3
CON=CNC(=O)Cc1cn(-c2ncc(C(F)(F)F)cc2Cl)c2ccccc12
  ., 9.5, ., 69.3
Cc1ccccc1-n1c(SCC(O)=C(C#N)c2nc3ccccc3[nH]2)nnc1-c1ccncc1
  ., 2.5, ., 1.8
C(=Nn1cnnc1)c1cccc2ccccc12
  ., 3.9, ., 8.5
COc1ccc(C=NNC(=O)c2ccn[nH]2)cc1COc1ccc(F)cc1
  ., -1.4, ., -2.3
C=CCNC(=O)CC(=O)NN=Cc1ccc(C(=O)OC)cc1
  ., 1.9, ., 5.6
COc1cc(C=NNC(=O)Cn2nc([N+](=O)[O-])cc2C)cc(Br)c1OCc1ccccc1
  ., -1.9, ., -14.7
CCn1cc(C=NN=C2CCC3C4CCc5cc(O)ccc5C4CC[C@]23C)c(C)n1 (stereo partly specified)
  ., -2.3, ., -0.8
Cc1ccc(-n2nc(C(=O)NN=Cc3cccc(C(F)(F)F)c3)c3ccccc3c2=O)cc1C
  ., -1.6, ., 2.1
CC(=O)N(N=C1Sc2ccccc2C1=O)c1ccc(C)cc1C
  ., -1.0, ., 4.7
O=C1c2ccccc2NC(c2ccccc2)N1N=Cc1ccccc1 (stereo unspecified)
  ., -2.4, ., 4.3
N#Cc1c(-n2cccc2C=NO)sc2c1CCCC2
  ., 7.0, ., 13.8
COc1ccc(C=NNC(=O)COc2ccc(C(C)(C)C)cc2)cc1Cn1nc(C)cc1C
  ., 4.0, ., 0.3
O=[N+]([O-])c1cccc(C=NNc2cc(Cl)nc(-c3ccccc3)n2)c1
  ., -2.5, ., -24.3
CCC(O)=NS(=O)(=O)c1ccc(N=NN(C)C)cc1
  ., 2.8, ., -4.5
N#CC(=C(O)c1ccco1)c1ccccn1
  ., 2.7, ., 2.3
CN(C)c1ccc(C=NNC(=O)c2nnn(-c3nonc3N)c2CN2CCCCCC2)cc1
  ., 0.1, ., -4.1
Cc1ccc(C=Nn2cnc3sc(-c4ccccc4)cc3c2=O)o1
  ., 5.0, ., 23.8
O=C(O)c1ccccc1NN=Cc1ccnc2ccccc12
  ., 7.1, ., -9.7
O=C(NN=Cc1ccc2c(c1)OCO2)c1sc2cccc(Cl)c2c1Cl
  ., -1.6, ., -20.2
Cc1cccc(CN(CC(=O)NN=Cc2ccco2)S(=O)(=O)c2ccc(Cl)cc2)c1
  ., -5.3, ., -17.0
CCOC(=O)C=c1sc(=Cc2ccc3cc(OC)ccc3c2)c(=O)n1CC(=O)NCC1CCCO1 (stereo unspecified)
  ., 0.6, ., -11.3
CC(=NO)C(=O)NCc1ccccn1
  ., -0.3, ., 4.7
CCCCC(C)=NNC(=O)C(=O)NCCc1ccccc1
  ., -0.8, ., 2.2
C#CCOc1c(Br)cc(C=NO)cc1OCC
  ., 2.5, ., 29.6
C=CCOc1ccc(C(CC)=NO)cc1OC
  ., 0.7, ., 4.7
CC(=NNC(=O)c1cn(-c2cccc(C)n2)cn1)c1ccc(C)cc1
  ., -0.2, ., -1.2
CCC(=O)Nc1ccc(C(C)=NNS(=O)(=O)c2ccc(C)cc2)cc1
  ., 3.2, ., 0.2

Some of the entries so far, as a markdown table.
| Molecule | Bead autofluor | RN4220 kill | PrP UTR inh | Sa ugtP lethal |
| --- | --- | --- | --- | --- |
| CCCCC(C)=NNC(=O)C(=O)NCCc1ccccc1 | . | -0.8 | . | 2.2 |
| C#CCOc1c(Br)cc(C=NO)cc1OCC | . | 2.5 | . | 29.6 |
| C=CCOc1ccc(C(CC)=NO)cc1OC | . | 0.7 | . | 4.7 |
| CC(=NNC(=O)c1cn(-c2cccc(C)n2)cn1)c1ccc(C)cc1 | . | -0.2 | . | -1.2 |
